Screening data from PubChem BioAssay.
Cruzain inh Det – qHTS Assay for Promiscuous and Specific Inhibitors of Cruzain (with detergent) | Cruzipain (Trypanosoma cruzi), P25779 | purified cruzain, Z-FR-AMC fluorescence, 0.01% Triton | Potency, µM, inactives show max response, negative = inhibition, most hits filed as inhibitors | 200,000 compounds, 0.43% hits | AID 1478, 2009;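 note: plate controls were neutral wells for no effect and buffer without enzyme for full effect; nearly all actives have a fitted effect of over 40% in size; top concentration of the series not given in the record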
Target sequence (P25779 123-467 limits assumed): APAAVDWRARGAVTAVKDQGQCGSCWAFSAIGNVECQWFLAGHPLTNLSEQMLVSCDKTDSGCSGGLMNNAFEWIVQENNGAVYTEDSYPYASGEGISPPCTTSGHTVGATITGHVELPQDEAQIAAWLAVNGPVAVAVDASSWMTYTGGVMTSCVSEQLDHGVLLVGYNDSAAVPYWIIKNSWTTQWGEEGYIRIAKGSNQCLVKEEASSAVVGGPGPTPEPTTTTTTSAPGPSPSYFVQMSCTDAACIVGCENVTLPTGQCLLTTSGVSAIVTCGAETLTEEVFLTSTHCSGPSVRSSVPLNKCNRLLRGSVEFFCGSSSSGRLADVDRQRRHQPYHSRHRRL
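Detergent-containing arm of a paired screen for aggregation-based inhibition: 0.01% Triton X-100 present. Cruzain at 1.5 nM cleaved 2 uM Z-FR-AMC at pH 5.5 with 5 mM DTT; AMC fluorescence gain over 60 s measured activity.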
2A StopGo – High Throughput Screening for Foot and Mouth Disease Virus Antivirals; human cells with a luciferase reporter of 2A StopGo recoding; control for the full effect not named in the record; 410,000 compounds, 1.2% hits; Potency, µM (top dose mostly 57.9 µM), for the others: at the top dose signal change, negative = less light; active = well fitted falling curve with a large enough effect; inconclusive = small, poorly fitted or top-dose-only effect; inactive = no such curve, though single readings can be large or run the other way; tested in HEK293T cells; note: % is set by controls: 0 for no effect and ±100 for the full control effect; nearly all actives have a fitted effect of over 45% in size; luciferase light after 4 h
SARS PLpro yeast – qHTS of Yeast-based Assay for SARS-CoV PLP | S. cerevisiae expressing SARS-CoV PLpro, growth rescue; control for the full effect not named in the record | Potency, µM (series often up to 32.9 µM), for the others: at the highest dose activity, positive = growth rescue | 330,000 compounds, 0.19% hits; active means well fitted rising curve with a large enough effect; inconclusive means small, poorly fitted or top-dose-only effect; inactive means no such curve, though single readings can be large or run the other way; note: 0% is about no effect; nearly all actives have a fitted effect of over 55% in size; growth read by luminescence after 48 h
MARV entry inh – qHTS for inhibitors of binding or entry into cells for Marburg Virus; Marburg virus pseudotyped entry inhibition, cell reporter; control for the full effect not named in the record; about a third of the inactives were read at about 46 µM; Potency, µM (titrated, usually from 37.8 µM), for inactives: top-dose activity change, negative = inhibition, hits mostly inhibitors; 300,000 compounds, 1.8% hits; active = well fitted inhibition curve with a large enough effect; inconclusive = small, poorly fitted or top-dose-only effect, or effect the other way; inactive = flat fitted curve, though single readings scatter; tested in HEK293 cells; about a fifth of its hits are not listed in these tables; note: % is set by controls: 0 for no effect and ±100 for the full control effect; luciferase read-out
NS1 function inh – qHTS Assay for Inhibitors of Influenza NS1 Protein Function | S. cerevisiae slowed by influenza A NS1, growth recovery by OD600 | Potency, µM (highest dose often 46.1 µM), for inactives: at the highest dose activity, positive = more growth | 270,000 compounds, 0.4% hits; active means well fitted rising curve with a large enough effect; inconclusive means small, poorly fitted or top-dose-only effect; inactive means no such curve, though single readings can be large or run the other way; note: nearly all actives have a fitted effect of over 50% in size
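A cell-based growth assay was used: compounds that relieve NS1-induced slow growth of budding yeast raise OD600. Assay medium was yeast nitrogen base with ammonium sulphate and -URA supplement, pH 6.0, with 2% galactose.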
RE007 growth inh – qHTS Assay for Inhibitors of the HIV-1 protein Vpr. 360,000 compounds, 0.21% hits. S. pombe RE007 Vpr strain, BacTiter-Glo ATP luminescence, 24 h; control for the full effect not named in the record. Potency, µM (titrated, usually from 92.2 µM), for the others: at the top dose activity change, negative = less growth. AID 651644, 2012; active = well fitted falling curve with a large enough effect; inconclusive = small, poorly fitted or top-dose-only effect; inactive = no such curve, though single readings can be large or run the other way;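 note: % is set by controls: 0 for no effect and ±100 for the full control effect; nearly all actives have a fitted effect of over 50% in size; the assay follows cell death caused by Vpr and the record does not say whether a fall means rescue or toxicity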
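Fission yeast RE007 carrying one integrated HIV-1 vpr copy, seeded at OD 0.01 in PMG+AL medium with 23 nL pinned compound. Grown 24 h at 30 degrees; viability read by BacTiter-Glo luminescence after 5 min.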
Lassa entry inh – qHTS for Inhibitors of binding or entry into cells for Lassa Virus; Potency, µM (top dose mostly 37.9 µM), for the others: top-dose activity change, negative = inhibition, most hits filed as inhibitors; Lassa virus pseudotype entry inhibition, cell reporter; control for the full effect not named in the record; AID 540256, 2011; 300,000 compounds, 1.2% hits; active means well fitted inhibition curve with a large enough effect; inconclusive means small, poorly fitted or top-dose-only effect, or effect the other way; inactive means flat fitted curve, though single readings scatter; tested in HEK293 cells; note: % is set by controls: 0 for no effect and ±100 for the full control effect; nearly all actives have a fitted effect of over 50% in size; luciferase read-out
Cruzain inh noDet – qHTS Assay for Promiscuous and Specific Inhibitors of Cruzain (without detergent); 200,000 compounds, 2.3% hits; Potency, µM, for inactives: max response, negative = inhibition, most hits filed as inhibitors; purified cruzain, Z-FR-AMC fluorescence, no detergent; AID 1476, 2009;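 note: plate controls were enzyme without inhibitor for no effect and buffer without enzyme for full effect; nearly all actives have a fitted effect of over 40% in size; top concentration of the series not given in the record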
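Detergent-free condition (0.00005% Triton X-100) in acetate buffer pH 5.5 with DTT. 1.5 nM enzyme and compound were pre-mixed 15 min, then 2 uM Z-FR-AMC substrate added; reaction progress from fluorescence change between first and third reads (60 s).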
* hit, by the source's call; ? = inconclusive; nt = no result given; & = joins results of further samples; [ ] = remark or other dose. Unless noted, calls come from the whole dose curve; as a rule, active = well fitted curve in the direction sought with a large enough effect; inconclusive = small, poorly fitted or top-dose-only effect, or another doubt; inactive = no such curve, though single readings can be large; an effect the other way counts as inactive or inconclusive. Potency is the fitted concentration of half-maximal effect.

Molecule,Cruzain inh Det,2A StopGo,SARS PLpro yeast,MARV entry inh,NS1 function inh,RE007 growth inh,Lassa entry inh,Cruzain inh noDet
CCOCCCn1c(=N)c(C(=O)NCC2CCCO2)cc2c(=O)n3cccc(C)c3nc21 (stereo unspecified),?,-22%,nt,?,nt,nt,7%[46.1 µM],?
Cc1ccccc1-c1nnc(SCCC(=O)N2CCOCC2)o1,nt,23%,-1%,?,nt,1%,nt,nt
CCc1ccc(CNC(=O)CN2C(=O)CCn3nc(-c4cn(C)c5ccccc45)cc32)cc1,-3.0%,2%,nt,nt,nt,nt,9%[46.1 µM],?
Cc1onc(-c2ccccc2Cl)c1C(=O)N(C)C1CCCCC1,3.4%,-8%,-2%,nt,-9%,-11%,nt,-10%
O=C(CSc1nnc(-c2cccnc2)n1-c1ccccc1)Nc1ccccc1,0.7%,nt,-8%,-18%,-8%,-8%,10%,-1%
CC(=O)c1ccc(NC(=O)C2CCN(c3nnc(C)c4c(C)n(-c5ccccc5)nc34)CC2)cc1,-3.5%,-16%,nt,nt,nt,nt,23%[46.1 µM],-2%
COc1ccc(NC(=O)CN(C)C(=O)c2cccc(S(=O)(=O)N3CCN(c4ccccc4)CC3)c2)cc1,nt,?,3%,?,nt,7%,?,nt
COc1ccc(NC(=O)CN(C)C(=O)c2ccc(NS(=O)(=O)c3cccc([N+](=O)[O-])c3)cc2)cc1,nt,-1%,5%,7%[46.1 µM],nt,5%,8%,nt
Cc1onc(-c2ccccc2Cl)c1C(=O)NNC(=O)c1ccc(F)cc1,nt,-5%,-4%,4%[46.1 µM],-3%,-14%,2%[46.1 µM],nt
Cc1ccc(S(=O)(=O)CC(=O)Nc2nc3c(C)cc(C)cc3s2)cc1,-7.2%,-2%,nt,nt,nt,nt,-2%[46.1 µM],13µM*
Cc1cc(=O)oc2cc(OCC(=O)NCCCN3CCCC3=O)ccc12,nt,-3%,0%,nt,-8%,-6%,nt,nt
CCOC(=O)c1c(NC(=O)C2COc3ccccc3O2)sc2c1CCN(Cc1ccccc1)C2 (stereo unspecified),-4.5%,?,-56%,-9%,-11%,-13%,?,2%
COCc1oc2ccc(NS(=O)(=O)c3ccc(C)cc3)cc2c1C(=O)OC,-9.3%,65%[activator],nt,?,nt,nt,-29%[46.1 µM],-12%
CCC(C)c1ccccc1N1CC(C(=O)N2CCN(S(=O)(=O)c3cccc([N+](=O)[O-])c3)CC2)CC1=O (stereo unspecified),nt,?,-8%,-2%,nt,-2%,-1%,nt
Cc1oc2c(C)c(O)ccc2c(=O)c1N1C(=O)c2ccccc2C1=O,-2.8%,0%,24%,-5%,12%,19%,10%,0%
Cn1c2c(c(=O)n(C)c1=O)C(CC(=O)Nc1ccccc1)C(=O)N2 (stereo unspecified),-2.0%,44%[activator],0%,-12%,13%,9%,0%,9%
COc1cccc(C2N(c3ccc(Cl)cc3)C(=O)C3CCCN32)c1 (stereo unspecified),-3.2%,9%,-10%,nt,-28%,-4%,nt,-10%
COC(=O)C1=C(N)OC2=C(C(=O)CCC2)C1c1cccs1 (stereo unspecified),3.1%,-18%,-14%,25%,-5%,17%,7%,15%
CN(Cc1ccccc1)C(=O)CCC1CCN(C(=O)CC2=CCCCC2)CC1,nt,-3%,-3%,nt,-3%,8%,nt,nt
Cc1ccc(OCc2nc(C#N)c(NCc3ccco3)o2)cc1,-8.8%,12%,-14%,3%,-35%,-8%,-26%,-12%
O=C(Cn1ccsc1=NC(=O)C(F)(F)F)c1ccccc1,2.6%,26%,5%,?,4%,-10%,9%,4%
CC(C)=CCN1CCN(CCCn2cccn2)CC1CCO (stereo unspecified),nt,-12%,0%,-2%[46.1 µM],-1%,30%,-11%[46.1 µM],nt
CCOc1ccc(CNC(=O)c2ccc(NC(=O)c3nsc4ccccc34)cc2)cc1,0.0%,25%,nt,nt,nt,nt,15%[46.1 µM],?
COc1cc2[nH]c(C(=O)Nc3ccc4c(c3)OCCO4)cc2c(OC)c1OC,nt,?,-2%,?,-6%,-21%,8%[46.1 µM],nt
COc1ccc(S(=O)(=O)NC(C)C)cc1-n1cnnn1,0.4%,13%&28%,1%,29%&29%[46.1 µM],-2%,4%,?,-9%
COc1ccc(CCC(=O)N/N=C\c2cccs2)cc1,nt,1%,-2%,-13%,nt,0%,?,nt
O=C(CCN1CCCCC1)NNC(=O)C12CC3CC(CC(C3)C1)C2,nt,4%,-3%,10%,-1%,-4%,22%,nt
CCC(C)NCCOCCOc1ccc(Cl)c(C)c1C (stereo unspecified),0.1%,?,-16%,?,-10%,-4%,?,-2%
COc1cc2ccccc2cc1C(=O)Nc1ccc(Br)cn1,nt,40%[activator],3%,nt,4%,-1%,nt,nt
COc1cc(OC)nc(NC2OC(=O)c3ccccc32)n1 (stereo unspecified),4.0%,13%,9%,-5%&-5%,2%,5%,2%,-15%
O=C(NC1=NCCS1)c1ccc(OCC2CCCO2)cc1 (stereo unspecified),5.6%,-2%,-3%,?,-10%,17%,?,-2%
O=C1C(c2ccc(F)cc2)N(Cc2ccc3c(c2)OCO3)C(=O)CN1C1CCCC1 (stereo unspecified),4.5%,-15%,16%,2%,-15%,6%,-14%,9%
Cc1nc(N2CCN(S(=O)(=O)c3cccc4nonc34)CC2)c2c3c(sc2n1)CCCC3,-5.0%,nt,0%,-19%,3%,16%,-19%,-10%
CCC(C)NC(=O)Cn1ccc2cc(S(=O)(=O)N3CCCCCC3)ccc21 (stereo unspecified),-1.2%,-18%&9%,16%,nt,0%,-1%,-2%[46.1 µM],-17%
COc1ccc(N2C(=O)CSC2c2cccs2)cc1 (stereo unspecified),-3.3%,-21%,9%,5%,?,-2%,15%,-13%
COc1ccc(OCCCC(=O)N2CCCc3ccccc32)cc1,-2.5%,?,-8%,8%,-34%,3%,3%,-5%
O=C(NCc1ccc(N2CCCC2=O)cc1)c1cccc(Cl)c1,nt,29%,-5%,5%[46.1 µM],5%,-4%,27%,nt
COc1nc(-c2ccccc2)ccc1-c1noc(-c2ccc(F)cc2)n1,3.8%,nt,9%,3%,-2%,nt,nt,-25%
CC(C)[C@H](NC(=O)c1ccccc1)C(=O)OCC(=O)N1CC2(C)CC1CC(C)(C)C2 (stereo partly specified),0.2%,-10%,8%,-14%,-14%,-15%,-2%,16%
COc1ccccc1NC(=O)Cn1c(C)cc(C)c(C#N)c1=O,-3.4%,-26%,nt,nt,nt,nt,-17%[46.1 µM],1%
CC(C)(C)c1ccc(C(=O)c2c[nH]c(C(=O)O)c2)cc1,nt,-24%,-3%,0%[46.1 µM],nt,28%,?,nt
Cc1ccc(NC(=O)c2cc(=O)c3ccccc3o2)cc1S(=O)(=O)N1CCOCC1,nt,-25%,-1%,nt,-9%,20%,nt,nt
O=C(Nc1cccc(S(=O)(=O)Nc2ccc(SC(F)F)cc2)c1)C1CCC1,nt,1%,0%,?,nt,0%,?,nt
COCC(C)n1c(C)cc(C(=O)COC(=O)c2ccc3c(c2)NC(=O)CS3)c1C (stereo unspecified),-9.0%,?,-6%,11%,18%,11%,-18%,6%
O=C(c1cccc(C(F)(F)F)c1)N1CCCC1,4.1%,-16%,3%,5%,0%,-3%,10%,-7%
COc1ccc2[nH]c(=O)cc(C(=O)O)c2c1,nt,-1%,-1%,4%[14.2 µM],4%,-2%,26%,nt
COc1cccc(OC)c1C(=O)Nc1ccc(S(=O)(=O)N2CCCCC2)cc1,nt,-17%,0%,-18%[46.1 µM],0%,11%,10%,nt
Cc1cc(N2CCN(C)CC2)nc2ccc(NC(=S)NCCCN3CCc4ccccc4C3)cc12,nt,-12%,-2%,4µM*,-1%,-17%,?,nt
O=S(=O)(/N=C(/Nc1cccc2ccccc12)c1ccccc1)c1cccs1,1.2%,-23%,-6%,?,14µM*,19%,-29%,0%
COc1cccc(C(=O)Nc2cc(-c3cn4cccnc4n3)ccc2C)c1,nt,4%,-2%,-2%,-5%,4%,-29%,nt
C=CCNc1nc(N2CCOCC2)nc(N2CCOCC2)n1,0.8%,nt,10%,5%,-4%,-12%,8%,-11%
Cn1nc(C(=O)N2CCc3ccccc32)c2ccccc2c1=O,nt,3%,0%,nt,3%,5%,nt,nt
CN(CC(O)COc1ccc(S(=O)(=O)N2CCOCC2)cc1Cl)C1CCCCC1 (stereo unspecified),nt,-13%,0%,10µM*,-14%,13%,-13%,nt
CC(CCc1ccccc1)NC(=O)C(=O)N1CCOCC1 (stereo unspecified),nt,21%,1%,0%[46.1 µM],0%,6%,-1%,nt
CN(CC(O)COCc1ccccc1F)C1CCCCC1 (stereo unspecified),nt,-20%,-2%,nt,-7%,-15%,nt,nt
CCNC(=O)c1ccccc1CCc1ccccc1,nt,-5%,0%,8%[46.1 µM],-2%,3%,12%[46.1 µM],nt
COc1ccc2c(CC(=O)NNC(=O)c3ccc(O)cc3)coc2c1,nt,7%,0%,-1%[46.1 µM],nt,8%,16%[46.1 µM],nt
COc1ccc(NC(=O)C2CCCN(C(=O)Nc3ccc(F)cc3)C2)cc1OC (stereo unspecified),nt,59%[activator],-1%,6%[46.1 µM],8%,4%,16%[46.1 µM],nt
Cc1ccc(S(=O)(=O)c2cn(CC(=O)Nc3ccccc3)c3cc4c(cc3c2=O)OCO4)cc1,-2.5%,-5%,nt,11%[46.1 µM],nt,nt,-17%[46.1 µM],1µM*
Cc1noc(C)c1CSc1nc2[nH]ncc2c(=O)n1-c1ccccc1,0.8%,17%,-14%,?,-5%,21%,4µM*,9%
CCOc1ccccc1NC(=O)N1CCCn2nc(C)cc21,-2.4%,-20%,nt,nt,nt,nt,8%[46.1 µM],-6%
CCOc1ccc(CCNC(=O)c2ccc(-c3nc(CSc4ccc(C)cc4)c(C)o3)cc2)cc1,0.6%,67%[activator],nt,nt,nt,nt,?,17%
